CtBP-E1A inh – qHTS Assay for Inhibitors of the CtBP/E1A Interaction. CtBP / adenovirus E1A interaction (AlphaScreen). AlphaScreen GST-E1A/His-CtBP binding, 1536-well; stronger effect = lower value; control for the full effect not named in the record. activity change, % (no concentration beside the values). actives 0.49% (n = 340,000); in the data active means activity change below about -65%; inconclusive means about -30% to -65%; inactive means above about -30%; note: % is set by controls: 0 for no effect and ±100 for the full control effect; compound concentration not given in the record
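Protein mix (5X: 125 nM each GST-E1A, His-CtBP) was incubated with pinned compound 2 h at 37 deg C in dark, in 50 mM Tris pH 8.0 buffer with 300 mM NaCl. Glutathione donor and nickel acceptor beads followed; AlphaScreen signal read after 1 h.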
PINK1 expr mod – A Quantitative High throughput Screen to Identify Chemical Modulators of PINK1 Expression; PINK1 immunofluorescence, high-content cytometry, 24 h; actives 0.2% (n = 410,000); Potency, µM (doses to about 76.6 µM), for inactives: top-dose activation (PINK1 increase), hits mostly activators; AID 624263, 2012; active = well fitted activation curve with a large enough effect; inconclusive = small, poorly fitted or top-dose-only effect; inactive = flat fitted curve, though single readings scatter; cell line not stated here;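 note: potency is the fitted concentration of half-maximal effect; % of control where 0% means no effect; nearly all actives have a fitted effect of over 65% in size; a mitochondrial uncoupler was the plate control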
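Measures PINK1 amount and localization on or inside mitochondria by immunofluorescence. Stable cells get compounds at 5 concentrations for 24 hours before fixation and staining; CCCP controls included.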
TRPML1 ag – qHTS for Agonists of the Human Mucolipin Transient Receptor Potential 1 (TRPML1). TRPML1-expressing cells, Ca2+ dye fluorescence, FDSS; host cell line not named in the record; reference of the full effect not given here. actives 0.12% (n = 410,000). activation, % (no concentration beside the values). AID 624414, 2012; in the data active = activation above about 50%; inconclusive = about 30% to 50%; inactive = below about 30%; note: 0% is about no effect; the text of the record puts the active cut at 80%
Target sequence (Q9GZU1 whole entry, looked up): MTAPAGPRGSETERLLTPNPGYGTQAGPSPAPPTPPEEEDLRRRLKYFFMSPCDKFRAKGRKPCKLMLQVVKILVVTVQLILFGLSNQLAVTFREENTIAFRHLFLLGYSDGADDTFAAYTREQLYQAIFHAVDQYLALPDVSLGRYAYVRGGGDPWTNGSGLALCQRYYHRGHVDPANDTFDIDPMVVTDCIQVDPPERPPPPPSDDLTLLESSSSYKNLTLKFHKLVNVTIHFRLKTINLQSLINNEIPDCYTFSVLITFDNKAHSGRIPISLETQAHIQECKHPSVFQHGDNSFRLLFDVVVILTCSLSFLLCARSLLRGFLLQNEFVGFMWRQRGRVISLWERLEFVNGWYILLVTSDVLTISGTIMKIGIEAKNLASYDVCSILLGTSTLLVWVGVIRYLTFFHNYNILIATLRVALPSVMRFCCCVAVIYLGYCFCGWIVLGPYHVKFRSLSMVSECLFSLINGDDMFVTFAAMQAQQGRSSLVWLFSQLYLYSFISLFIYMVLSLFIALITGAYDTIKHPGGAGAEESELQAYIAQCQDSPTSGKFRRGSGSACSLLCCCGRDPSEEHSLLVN
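Tet-induced TRPML1-DL cells, 1,500 per well, cultured overnight, were loaded with a no-wash Ca2+ dye for 45–90 min. Calcium fluorescence was recorded on the FDSS for 110 s after compound addition, before the EC80 agonist (4 uM 54-4) was added.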
Six1-Eya2 blk – qHTS Assay for Inhibitors of the Six1/Eya2 Interaction; Homeobox protein SIX1 (Homo sapiens) + Protein phosphatase EYA2 (Homo sapiens), …; AlphaScreen GST-Six1/His-Eya2 binding, biochemical; stronger effect = lower value; control for the full effect not named in the record; activity change, % (no concentration beside the values); actives 0.56% (n = 360,000); in the data active = activity change below about -65%; inconclusive = about -30% to -65%; inactive = above about -30%; note: % is set by controls: 0 for no effect and ±100 for the full control effect; compound concentration not given in the record
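Six1/Eya2 binding was read as AlphaScreen signal after compounds were pinned into GST-Six1 plus His-tagged Eya2 (5X stock 250/500 nM) in pH 8.0 Tris/NaCl/TCEP buffer, beads added, then incubated 1 h, 37 C, dark.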
TRPML1 inh – qHTS for Inhibitors of the Human Mucolipin Transient Receptor Potential 1 (TRPML1); Mucolipin-1 (Homo sapiens), Q9GZU1; TRPML1-inducible cells, Ca2+ dye fluorescence, FDSS; stronger effect = lower value; inhibition of EC80 agonist-evoked calcium signal; actives 0.02% (n = 390,000); activity change, negative = inhibition, % (concentration not given with the values); in the data active means activity change below about -50%; inconclusive means about -30% to -50%; inactive means above about -30%;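 note: stimulus is agonist 54-4 at its EC80 concentration; % is set by controls: 0 for no effect and ±100 for the full control effect; compound concentration not given in the record; the text of the record puts the active cut at -80%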
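TRPML1-DL cells, Tet-induced overnight (~16 h, 37 °C) at 1,500 cells/well, were loaded with Ca8 no-wash dye plus quencher for 45-90 min at room temperature. Compounds were pinned during FDSS kinetic reading; agonist 54-4 at EC80 (4 uM final) then added.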
D2 agonist – Beta-Arrestin HTS for Positive Allosteric Modulators of the Human D2 Dopamine Receptor: Agonists | DiscoveRx PathHunter D2 beta-arrestin, luminescence, 90 min; 100% = 57 uM dopamine signal | activation, % (concentration not given with the values) | actives 0.084% (n = 360,000) | AID 624465, 2012; in the data active = activation above about 40%; inconclusive = about 15% to 40%; inactive = below about 15%; note: compound concentration not given in the record; the text of the record calls up to 30% inactive
Target sequence (P14416 whole entry, looked up): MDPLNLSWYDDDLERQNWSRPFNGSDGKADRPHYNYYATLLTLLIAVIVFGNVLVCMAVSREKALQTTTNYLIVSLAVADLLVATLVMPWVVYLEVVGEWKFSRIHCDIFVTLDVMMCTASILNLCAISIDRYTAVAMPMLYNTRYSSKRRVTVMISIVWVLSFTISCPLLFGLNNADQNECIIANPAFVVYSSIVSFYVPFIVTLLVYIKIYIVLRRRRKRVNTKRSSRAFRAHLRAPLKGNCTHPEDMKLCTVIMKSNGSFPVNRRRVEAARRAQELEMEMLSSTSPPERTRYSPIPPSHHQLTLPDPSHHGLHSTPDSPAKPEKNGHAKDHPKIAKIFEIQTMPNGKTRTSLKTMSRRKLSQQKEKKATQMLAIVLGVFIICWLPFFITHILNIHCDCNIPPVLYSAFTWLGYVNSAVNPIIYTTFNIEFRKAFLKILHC
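Agonist mode: compounds alone added to overnight-plated D2 PathHunter cells for 90 min at 37 C, with 57 uM final dopamine (EC100) defining full response. Beta-arrestin recruitment detected by chemiluminescent reagent, read after 1 h at ambient temperature.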
* = called active by the depositor; [ ] = another dose, or the depositor's remark.

For CCN1CCN(CCNC(=O)c2ccc(CS(=O)(=O)c3c(Cl)cccc3Cl)o2)CC1 the results were CtBP-E1A inh -1, PINK1 expr mod 2.0%, TRPML1 ag -0.3, Six1-Eya2 blk 2, TRPML1 inh -7 and D2 agonist -0.1.
Screening Cc1ccc2nc(N3CC(C)OC(C)C3)nc(-c3ccccc3)c2c1 (stereo not given) returned PINK1 expr mod 4.1%, TRPML1 ag -0.2, Six1-Eya2 blk 12, TRPML1 inh 0 and D2 agonist 0.6.
CC(C)CNC(=O)COc1ncnc2ccccc12 was read as CtBP-E1A inh -6, PINK1 expr mod 0.2%, TRPML1 ag -0.2, Six1-Eya2 blk 8, TRPML1 inh -2 and D2 agonist 2.3.
Screening Cc1ccc(CS(=O)(=O)CC(C)(O)c2ccccc2)cc1 (stereo not given) returned CtBP-E1A inh 2, PINK1 expr mod 0.1%, TRPML1 ag 0.7, Six1-Eya2 blk 2, TRPML1 inh 32 and D2 agonist -4.2.
`S=c1[nH]nc(-c2ccc(Br)cc2)n1Cc1ccco1` gave CtBP-E1A inh -12, PINK1 expr mod 0.6%, TRPML1 ag 0.4, Six1-Eya2 blk -12, TRPML1 inh 16 and D2 agonist -5.0.
`O=[N+]([O-])c1cc(-c2nc(-c3ccncc3)no2)cc([N+](=O)[O-])c1` gave CtBP-E1A inh -5, PINK1 expr mod 1.7%, TRPML1 ag -0.6, Six1-Eya2 blk -14, TRPML1 inh 76 and D2 agonist inconclusive.
CC1(C(=O)O)CCC2(C)CCC3(C)C(=CC(=O)C4C5(C)CCC(=O)C(C)(C)C5CCC43C)C2C1 (stereo not given) was read as CtBP-E1A inh 8, PINK1 expr mod -0.9%, TRPML1 ag 0.0, Six1-Eya2 blk -3, TRPML1 inh 27 and D2 agonist -2.5.
Screening C[C@]12CC[C@H](O)CC1=CCC1C2CC[C@@]2(C)C1CC[C@@H]2NCc1ccccc1 (stereo not given in full) returned CtBP-E1A inh -1, PINK1 expr mod 3.5%, TRPML1 ag 1.6, Six1-Eya2 blk 0, TRPML1 inh -1 and D2 agonist -3.7.
`Cc1ccsc1/C=N/NC(=S)NCCc1ccccc1` gave CtBP-E1A inh -1, PINK1 expr mod 0.0%, TRPML1 ag -1.4, Six1-Eya2 blk -14, TRPML1 inh 8 and D2 agonist -2.9.
`Cc1cc(SCC(=O)N(C)c2c(N)n(Cc3ccccc3)c(=O)[nH]c2=O)nc2ccccc12` gave PINK1 expr mod 1.0%, TRPML1 ag 0.7, Six1-Eya2 blk -3, TRPML1 inh -2 and D2 agonist -3.9.
`COc1ccc(C(=O)NNC(=S)NC(=O)c2ccco2)cc1` gave CtBP-E1A inh -8, PINK1 expr mod -2.3%, TRPML1 ag 0.4, Six1-Eya2 blk -7, TRPML1 inh 2 and D2 agonist -6.6.
For Cc1ccc(/C=N/NC(=O)c2cc3c(s2)CCCC3)o1 the results were PINK1 expr mod 7.9%, TRPML1 ag 1.2, Six1-Eya2 blk 0, TRPML1 inh -11 and D2 agonist -3.1.
For Cc1nn(S(=O)(=O)c2ccc(Cl)cc2)c(C)c1S(=O)(=O)N1CCOCC1 the results were CtBP-E1A inh -4, PINK1 expr mod 1.6%, TRPML1 ag -0.2, Six1-Eya2 blk 3, TRPML1 inh -6 and D2 agonist -5.1.
COc1ccc(/C=C2\SC(=O)NC2=S)cc1OC was read as CtBP-E1A inh -26, PINK1 expr mod -2.7%, TRPML1 ag 17, Six1-Eya2 blk -28, TRPML1 inh 23 and D2 agonist 0.6.
For COc1ccc(/C=N\NC(=O)C2CCCC2)cc1Br the results were CtBP-E1A inh -1, PINK1 expr mod 1.5%, TRPML1 ag -0.8, Six1-Eya2 blk -1, TRPML1 inh -16 and D2 agonist 0.2.
`COc1cc2[nH]c(=O)n(Cc3ccccc3Cl)c(=O)c2cc1OC` gave CtBP-E1A inh -9, PINK1 expr mod -2.7%, TRPML1 ag 1.7, Six1-Eya2 blk 0, TRPML1 inh 19 and D2 agonist -2.1.
For NC(=O)COC(=O)CC1CC2CCC1C2 (stereo not given) the results were CtBP-E1A inh 2, PINK1 expr mod 1.3%, TRPML1 ag -0.4, Six1-Eya2 blk 1, TRPML1 inh -9 and D2 agonist -3.8.
Cc1ccc2c(CN(C)Cc3ccccc3)cc(=O)oc2c1 was read as CtBP-E1A inh 11, PINK1 expr mod -0.2%, TRPML1 ag -0.3, Six1-Eya2 blk 3 and D2 agonist 1.0.
Screening Cn1ncc(C#N)c1/N=C/N1CCCCCC1 returned CtBP-E1A inh 5, PINK1 expr mod -0.2%[38.3 µM], TRPML1 ag -0.7, Six1-Eya2 blk 2, TRPML1 inh -14 and D2 agonist -1.0.
Screening O=c1[nH]cnc2c1sc1nc(-c3ccccc3)c3c(c12)CCCC3 returned CtBP-E1A inh 7, PINK1 expr mod 0.1%, TRPML1 ag -1.0, Six1-Eya2 blk 0, TRPML1 inh 10 and D2 agonist 10.

The closing three compounds of the section above lead into the next:
Cc1ccc2c(CN(C)Cc3ccccc3)cc(=O)oc2c1 was read as CtBP-E1A inh 11, PINK1 expr mod -0.2%, TRPML1 ag -0.3, Six1-Eya2 blk 3 and D2 agonist 1.0.
Screening Cn1ncc(C#N)c1/N=C/N1CCCCCC1 returned CtBP-E1A inh 5, PINK1 expr mod -0.2%[38.3 µM], TRPML1 ag -0.7, Six1-Eya2 blk 2, TRPML1 inh -14 and D2 agonist -1.0.
Screening O=c1[nH]cnc2c1sc1nc(-c3ccccc3)c3c(c12)CCCC3 returned CtBP-E1A inh 7, PINK1 expr mod 0.1%, TRPML1 ag -1.0, Six1-Eya2 blk 0, TRPML1 inh 10 and D2 agonist 10.
For O=C(CN1C(=O)NC2(CCCCCCC2)C1=O)Nc1ccc(OC(F)F)cc1 the results were CtBP-E1A inh 0, PINK1 expr mod -0.9%, TRPML1 ag -0.2, Six1-Eya2 blk -5, TRPML1 inh 10 and D2 agonist -1.3.
`Cc1cc2nc(/C=C/c3cccnc3)[nH]c2cc1C` gave PINK1 expr mod 6.9%, TRPML1 ag -0.5, Six1-Eya2 blk -4, TRPML1 inh -6 and D2 agonist -1.5.
For CCN(c1ccccc1)S(=O)(=O)c1ccc2c(c1)CC(C)N2C(=O)C1CC1 (stereo not given) the results were CtBP-E1A inh -12, PINK1 expr mod 0.5%, TRPML1 ag -0.3, Six1-Eya2 blk 0, TRPML1 inh 18 and D2 agonist -1.9.
For COC(=O)c1ccc(CNC(=O)CSc2nc3sc(C)c(C)c3c(=O)n2C)o1 the results were CtBP-E1A inh 0, PINK1 expr mod 1.3%[38.3 µM], TRPML1 ag 0.6, Six1-Eya2 blk 0, TRPML1 inh -9 and D2 agonist -0.7.
`O=C(NC1CC(=O)N(c2cccc(F)c2)C1)N1CCN(C(=O)c2ccco2)CC1` (stereo not given) gave CtBP-E1A inh 5, PINK1 expr mod 2.5%, TRPML1 ag -0.4, Six1-Eya2 blk 0, TRPML1 inh -2 and D2 agonist 1.1.
CCOCc1nnc(NC(=O)C2c3ccccc3Oc3ccccc32)s1 was read as CtBP-E1A inh 6, PINK1 expr mod 0.8%, TRPML1 ag 6.5, Six1-Eya2 blk 4, TRPML1 inh 7 and D2 agonist -4.7.
`COc1cccc(N(CC(=O)N2CCN(Cc3ccccc3)CC2)S(C)(=O)=O)c1` gave CtBP-E1A inh 6, PINK1 expr mod 0.5%, TRPML1 ag 0.0, Six1-Eya2 blk -1, TRPML1 inh -6 and D2 agonist -1.2.
`COc1ccc(C2=NN(CN3C(=O)C(=O)c4ccccc43)C(c3ccc(C)cc3)C2)cc1` (stereo not given) gave CtBP-E1A inh -11, PINK1 expr mod -0.6%, TRPML1 ag -0.4, Six1-Eya2 blk -6, TRPML1 inh -5 and D2 agonist -7.7.
Screening CCCCOc1ccc(CNC(=O)C2COc3ccc(OC)cc3C2)cc1 (stereo not given) returned PINK1 expr mod 1.4%, TRPML1 ag -1.1 and TRPML1 inh 5.
For COc1ccc(/C(O)=C2/C(=O)C(=O)N(c3ncccn3)C2c2ccc(OC)cc2)cc1 (stereo not given) the results were CtBP-E1A inh 4, PINK1 expr mod 0.8%, TRPML1 ag -0.1, Six1-Eya2 blk 2, TRPML1 inh 18 and D2 agonist -1.6.
Screening CCC(=NOCc1ccccc1)C(=O)NNS(=O)(=O)c1ccc(C)cc1 returned CtBP-E1A inh 7, PINK1 expr mod 1.3%, TRPML1 ag 0.0, Six1-Eya2 blk 5, TRPML1 inh 4 and D2 agonist -2.0.
Screening COc1ccccc1/C=C1/C(=O)ON=C1C returned CtBP-E1A inh -3, PINK1 expr mod 3.8%, Six1-Eya2 blk 2 and D2 agonist -4.7.
Screening CC1CCC(=NNc2ccc(C(F)(F)F)cc2[N+](=O)[O-])CC1 (stereo not given) returned CtBP-E1A inh -6, PINK1 expr mod 8.1%, TRPML1 ag 0.2, Six1-Eya2 blk inconclusive, TRPML1 inh 53 and D2 agonist -3.1.
`O=C(CSCc1ccc(Cl)cc1)Nc1ccc2c(c1)OCCO2` gave CtBP-E1A inh 0, PINK1 expr mod 1.2%, TRPML1 ag -0.2, Six1-Eya2 blk 2, TRPML1 inh 16 and D2 agonist 2.5.
COCCN1C(=O)COc2ccccc2C1C(=O)NC1CCCCC1 (stereo not given) was read as CtBP-E1A inh 1, PINK1 expr mod 2.1%, TRPML1 ag -0.3 and Six1-Eya2 blk 1.
`COc1cc2c(cc1OC)C(c1ccc(SC)cc1)CC(=O)N2` (stereo not given) gave CtBP-E1A inh -8, PINK1 expr mod -0.3%, TRPML1 ag 0.3, Six1-Eya2 blk -7, TRPML1 inh 14 and D2 agonist -2.5.
CCCCOc1ccc(C(=O)NN2CCN(C)CC2)cc1 was read as CtBP-E1A inh 14, PINK1 expr mod -1.5%, TRPML1 ag 0.4, Six1-Eya2 blk 2, TRPML1 inh -11 and D2 agonist -2.0.
For CC1(C(=O)Nc2cnc3ccccc3c2)CCN1CCc1ccccc1 (stereo not given) the results were CtBP-E1A inh -4, PINK1 expr mod -0.5%, TRPML1 ag 0.0, Six1-Eya2 blk -6 and D2 agonist 2.6.
Oc1ccc(C2=NNC(=NCc3ccc4c(c3)OCO4)SC2)c(O)c1 was read as CtBP-E1A inh -19, PINK1 expr mod 1.4%, TRPML1 ag 0.1, Six1-Eya2 blk -13, TRPML1 inh 23 and D2 agonist 1.0.
`COc1cccc(C(CCc2cc(OC)c(OC)c(OC)c2)NC(C)=O)c1` (stereo not given) gave CtBP-E1A inh 6, PINK1 expr mod 0.4%, TRPML1 ag 0.6, Six1-Eya2 blk 5, TRPML1 inh -15 and D2 agonist -2.6.

Screening data: PubChem, National Center for Advancing Translational Sciences (NCATS)
